Screening results from PubChem.
Sa growth 42C: blocks Staphylococcus aureus growth; S. aureus RN4220 growth, OD600, 20 h, 42 °C; active compounds read low; relative growth, % (test concentration not listed); 170,000 compounds, 0.53% hits;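 active = growth at 42 °C up to 50% and 20 or more points under that at 30 °C, or under 10% at both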;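 note: 300 nL library stock went into each well; scaled to the means of positive and negative controls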
GIV Gai3 FP: blocks GIV peptide binding to rat Galpha-i3; Galpha-i3/FITC-GIV peptide fluorescence polarization, 90 min; active compounds read low; scaled: aluminum fluoride 0%, vehicle 100%; AID 1224905; percent of control (FP), % (test concentration not listed); P08753; 210,000 compounds, 0.42% hits;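 active = replicate mean at 85% of control or lower, very high polarization wells dropped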;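 note: lower values mean more displacement of the GIV peptide from Galpha-i3; wells of about 15 µL received 100 nL stock; the first replicate is given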
Target sequence (P08753 whole entry, looked up): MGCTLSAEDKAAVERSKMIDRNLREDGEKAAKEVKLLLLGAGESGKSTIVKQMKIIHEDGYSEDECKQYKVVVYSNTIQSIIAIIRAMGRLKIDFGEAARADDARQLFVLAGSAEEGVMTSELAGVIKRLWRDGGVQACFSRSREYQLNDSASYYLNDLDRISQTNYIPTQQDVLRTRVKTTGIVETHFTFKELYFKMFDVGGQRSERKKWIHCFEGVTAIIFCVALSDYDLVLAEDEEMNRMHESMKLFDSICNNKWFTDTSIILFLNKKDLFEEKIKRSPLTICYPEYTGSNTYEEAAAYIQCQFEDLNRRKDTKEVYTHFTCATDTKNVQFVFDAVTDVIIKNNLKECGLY
HCMV NEC inh: cytomegalovirus nuclear egress complex inhibition; AID 1918969; 190,000 compounds, 0.15% hits; inhibition, % (test concentration not listed); HTRF UL50-UL53 interaction, normalized percent inhibition;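 active = both replicates at 50% or more, plus weaker picks with an unusually low signal ratio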;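 note: stock transfer was 100 nL into about 20 µL; 0% = negative control wells and 100% = wells with untagged competitor protein; inactives centre near -12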
Sa growth 42C second temp: second read-out of Sa growth 42C, no call of its own (marks repeat the call); relative growth, %; measured here: growth at 30 °C;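 optical density after 20 h as mean of two plates; 100% = untreated growth and lower means inhibition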
* hit, by the source's call; · = no result given; & = joins results of further samples.

Structure	Sa growth 42C	Sa growth 42C second temp	GIV Gai3 FP	HCMV NEC inh
O=C(Cn1c(=O)n(CCc2ccccc2)c(=O)c2cccnc21)Nc1ccc(F)cc1	113	88	105	-24
Cc1ccc(-n2nc(C)c3c(C)cc(=O)n(CC(=O)NCc4ccco4)c32)cc1	109	93	105	-20
c1ccc(-c2nnsc2-c2nc3ccccc3[nH]2)cc1	107	83	·	-34
CCOC(=O)CCC(=O)Nc1nnc2n1CCS2	121	83	106	·
CCn1c(=NC(=O)c2ccc(S(=O)(=O)N3CCCC3)cc2)sc2cc(Br)ccc21	85	90	99	-15
CCN(CC)CC(O)Cn1c2c(c3cc(C)ccc31)CCCC2=O (stereo not drawn)	100	82	104&103	-51&-52
COC(=O)C1CN(Cc2csc(NC(C)=O)n2)c2ccccc2O1 (stereo not drawn)	122	83	·	-8
c1ccc(C(Nc2nccs2)c2ccccc2)cc1	100	82	·	-26
Cc1ccc(NC(=O)CN(C)S(=O)(=O)c2ccc3c(c2)n(C)c(=O)c(=O)n3C)c(C)c1	91	91	98	-15
CCN(CC)c1ccc(C2C(C(=O)Nc3ccc(Br)cn3)=C(C)NC3=C2C(=O)CC(C)(C)C3)cc1 (stereo not drawn)	·	·	106	-14
O=C(Nc1ccc(F)cc1)c1ccc(S(=O)(=O)c2ccc(Br)cc2)nc1	·	·	98	-19
O=S1(=O)C[C@H](NC2CCCC2)[C@@H](S(=O)(=O)c2ccc(F)cc2)C1	·	·	98	-17
O=C(CSc1nnnn1C1CCCC1)NCc1cccs1	117	87	99	-2
CCc1ccc(/C=C2\Cc3ccccc3C2=O)cc1	105	94	100	·
CCCc1nnc(CSc2nc3ccccc3o2)o1	96	95	106	0
C=CCNc1nc(C(=O)OCC(=O)c2ccc[nH]2)cs1	95	99	·	5
O=C(/C=C/c1nnc2c3ccccc3cnn12)OCc1nnc(-c2cc3c(s2)CCCC3)o1	98	92	·	-31
COc1ccccc1CNC(=O)C1CCN(S(=O)(=O)c2c(C)noc2/C=C/c2cccs2)CC1	105	90	108	-42
O=C1CC(c2ccc(S(=O)(=O)NCc3ccncc3)cc2)CN1 (stereo not drawn)	116	93	·	1
CCC(C)NC(N)=O (stereo not drawn)	103	96	·	10
O=C(C1CCCN(S(=O)(=O)N2CCCCCC2)C1)N1CCN(c2cccc(C(F)(F)F)c2)CC1 (stereo not drawn)	99	83	103	-32
COc1ccc(-c2cc(C(=O)Nc3c(C)n(C)n(-c4ccccc4)c3=O)no2)cc1OC	87	86	101	-21
CC(C)(C)C(=O)CS(=O)(=O)c1ccc(Cl)cc1	99	89	105	-6
Cc1cccc2c(=O)cc(C)n(CC(=O)N3CCCCC3)c12	111	100	102	-8
Cc1sc2c(c1C)c(=O)nc1n2C(CSc2nc3sc4c(c3c(=O)[nH]2)CCCC4)CS1 (stereo not drawn)	96	79	96	-27
CC1CCN(C(=O)C2CCCN(c3nnc(-n4cccc4)s3)C2)CC1 (stereo not drawn)	·	·	96	6
COc1cccc(CNCCSc2nnnn2C)c1OCc1ccc(F)cc1	107	88	107	-7
Cc1ccc(C(C)(C)CCN2CCCN(C)CC2)o1	79	83	101	-14
Cc1ccc(S(=O)(=O)NC2=NCN(CCc3ccccc3)CN2)cc1	·	·	93	-24
c1ccc(-c2cc(-c3ccccc3)c3c(n2)-c2ccccc2OC3)cc1	96	92	109	-8

Structure	Sa growth 42C	Sa growth 42C second temp	GIV Gai3 FP	HCMV NEC inh
CCOC(=O)c1ccc(CN(Cc2ccccc2)S(=O)(=O)c2ccc(C)cc2)cc1	89	103	113	·
COc1cc(/C=N/NC(=O)c2cc(C3CC3)[nH]n2)ccc1O	92	100	102	-39
CCOc1ccc(NC2=NC(c3cc(OC)ccc3OC)n3c(nc(C)cc3=O)N2)cc1 (stereo not drawn)	·	·	104	-2
Cc1oc(-c2ccc(Cl)cc2)nc1Cn1c(=O)cc(-c2ccccc2)c2c(C)nn(C)c21	87	93	100	·
COc1ccc(-c2nc(SCC(=O)NCc3ccccc3)c3c(=O)n(C)c(=O)n(C)c3n2)cc1	84	93	98	1
Cc1oc2ncnc(N3CCC(C(=O)Nc4ccccc4Br)CC3)c2c1C	·	·	104	-33
O=C(Cn1c(=O)nc(-c2ccccc2)c2cc(Cl)ccc21)NCCc1ccc(Cl)cc1	100	88	103	-20
Cc1ccc(CSCC(=O)N2CCN(Cc3ccc4c(c3)OCO4)CC2)cc1	137	97	105	-16
CC(=O)Nc1ccc(S(=O)(=O)N2CCCOC2)cc1	87	82	100	-12
CCc1cccc2c(C#N)cn(CC(=O)NCCOC)c12	111	90	105	14
COCCCn1c(SCc2cccc(Cl)c2)nc2c(-c3ccccc3)cn(C)c2c1=O	·	·	101	-24
COc1ccc(NC(=O)CSc2ncc(-c3ccc(Cl)cc3)[nH]2)cc1OC	98	80	104	-1
O=C(Cc1ccccc1)NC1CCN(C(=O)C2CCCCC2)CC1	100	95	102	-24
COc1cc2c(cc1OC)[C@@H](Cc1ccc(O)cc1)N(C)CC2	105	85	·	-11
Cc1ccc(Cl)cc1NC(=O)c1ccc(Br)o1	107	99	100	-6
O=C(c1cnc2sc3c(n2c1=O)CCC3)N1CCN(c2ncccn2)CC1	·	·	106	-20
Cc1ccc(S(=O)(=O)N2c3ccccc3OC2c2ccc(Cl)c(Cl)c2)cc1 (stereo not drawn)	96	94	102	-14
COc1ccc(CCNc2nnc(-c3ccccc3)c(=O)[nH]2)cc1OC	88	63	98	-16
NC(=O)C1(N2CCCCC2)CCN(C(=O)c2c(-c3ccccc3)nnc3ccccc23)CC1	·	·	95	-70
CN(C)/N=C/c1ccc(/C=N/N(C)C)o1	112	89	·	-49
CCC(C)NC(=O)c1nc2c(nnn2Cc2ccccc2Cl)c(=O)[nH]1 (stereo not drawn)	114	69	107	-5
Cc1cc(Br)ccc1N1C(=O)/C(=C/c2ccc(N3CCCC3)o2)C(=O)NC1=S	·	·	251	-16
Cc1c(C(=O)O)c2cc(NS(=O)(=O)N(C)C)ccc2n1S(=O)(=O)N(C)C	·	·	99	-26
NNC(=O)CC(=O)NC1(Cc2ccc(O)cc2)CCCCC1	123	86	·	-10
O=C(c1cnn(C(=O)CN2C(=O)COc3ccccc32)c1)c1ccccc1O	94	101	·	-19
CCOC(=O)c1c(C)sc(-c2c(-c3cccc(Cl)c3)[nH]c3c2c(=O)n(C)c(=O)n3C)c1O	97	85	-63*	-25
O=C(Nc1ccccc1-c1nc2ccccc2[nH]1)c1ccccc1F	79	86	102	-1
CCCCNC(=O)c1ccc2c(c1)N(Cc1ccccc1)C(=O)CS2=O (stereo not drawn)	·	·	104	-3
Cc1ccc2c(c1)C(SCC(=O)O)CC1(CCCC1)O2 (stereo not drawn)	98	95	96	-10
CCN1CCN(CCC(=O)Nc2ccc(F)cc2)CC1	123	99	100	7

A different layout for some results above.
Each structure is followed by: Sa growth 42C | Sa growth 42C second temp | GIV Gai3 FP | HCMV NEC inh
O=C(Cc1ccccc1)NC1CCN(C(=O)C2CCCCC2)CC1
  100 | 95 | 102 | -24
COc1cc2c(cc1OC)[C@@H](Cc1ccc(O)cc1)N(C)CC2
  105 | 85 | · | -11
Cc1ccc(Cl)cc1NC(=O)c1ccc(Br)o1
  107 | 99 | 100 | -6
O=C(c1cnc2sc3c(n2c1=O)CCC3)N1CCN(c2ncccn2)CC1
  · | · | 106 | -20
Cc1ccc(S(=O)(=O)N2c3ccccc3OC2c2ccc(Cl)c(Cl)c2)cc1 (stereo not drawn)
  96 | 94 | 102 | -14
COc1ccc(CCNc2nnc(-c3ccccc3)c(=O)[nH]2)cc1OC
  88 | 63 | 98 | -16
NC(=O)C1(N2CCCCC2)CCN(C(=O)c2c(-c3ccccc3)nnc3ccccc23)CC1
  · | · | 95 | -70
CN(C)/N=C/c1ccc(/C=N/N(C)C)o1
  112 | 89 | · | -49
CCC(C)NC(=O)c1nc2c(nnn2Cc2ccccc2Cl)c(=O)[nH]1 (stereo not drawn)
  114 | 69 | 107 | -5
Cc1cc(Br)ccc1N1C(=O)/C(=C/c2ccc(N3CCCC3)o2)C(=O)NC1=S
  · | · | 251 | -16
Cc1c(C(=O)O)c2cc(NS(=O)(=O)N(C)C)ccc2n1S(=O)(=O)N(C)C
  · | · | 99 | -26
NNC(=O)CC(=O)NC1(Cc2ccc(O)cc2)CCCCC1
  123 | 86 | · | -10
O=C(c1cnn(C(=O)CN2C(=O)COc3ccccc32)c1)c1ccccc1O
  94 | 101 | · | -19
CCOC(=O)c1c(C)sc(-c2c(-c3cccc(Cl)c3)[nH]c3c2c(=O)n(C)c(=O)n3C)c1O
  97 | 85 | -63* | -25

(list continues)
Structure	Sa growth 42C	Sa growth 42C second temp	GIV Gai3 FP	HCMV NEC inh
Cc1cccc(CC(=O)NC2CCCC2)c1	95	96	100	14
O=C(Cn1ncc2c3ccccc3n(Cc3ccccc3)c2c1=O)Nc1ccccc1C(F)(F)F	107	87	107	-33
CC(C)c1ccc(C2=NC(c3ccncc3)=Nc3ccc(F)cc3N2)cc1	108	80	97	1
COc1cccc(NC(=O)c2oc3ccc(S(=O)(=O)N4CCC5(CC4)OCCO5)cc3c2C)c1	130	101	103	·
Cc1ccc2cnn(CC(=O)NCc3ccccc3)c2c1	101	94	111	2
CCOC(=O)c1cccc(NS(=O)(=O)c2cc3c(cc2C)NC(=O)CO3)c1	107	125	118	·
CC(Oc1ccccc1)C(=O)N1CCCc2ccccc21 (stereo not drawn)	87	91	·	-20
CC(Sc1nc2ccccc2c(=O)n1Cc1ccco1)C(=O)Nc1ccc2c(c1)OCCO2 (stereo not drawn)	85	94	·	-39
Cc1ccccc1C(=O)N1CCC(C(=O)Nc2ccc(F)c(Cl)c2)CC1	80	82	104	-20
CCCNC(=O)c1ccc(Cn2c(SCC(=O)Nc3ccc(CC)cc3)nc3ccccc3c2=O)cc1	·	·	104	-19
CCCNC(=O)c1ccc2c(c1)ncn2-c1ccc(C)cc1C	110	88	99	·
O=C(COC(=O)c1cc(-c2ccc(F)cc2)nc2ccccc12)Nc1ccccc1F	103	87	·	-43
CS/C(NC1CCCCC1)=C(/C#N)S(=O)(=O)c1ccc(Cl)cc1	88	95	107	22
CN(C(=O)c1ccc(S(=O)(=O)N2CCCC2)cc1)c1ccccc1	81	77	·	-12
COc1cc(NC(=O)Nc2nnc(N3CCCCCC3)s2)cc(OC)c1	124	93	100	-21
Cc1c(C)[n+](=O)c2c(n1[O-])CCCCC2	88	91	95	-23
CCOC(=O)CC1=CC(=O)N(CC(=O)NC(C)CC)c2ccccc2N1 (stereo not drawn)	·	·	106	-41
COc1ccc(N2C(=O)/C(=C/c3ccc(OCC(=O)O)c(OC)c3)NC2=S)cc1	·	·	103	-55
COc1ccc(CCNC(=O)CN2C(=O)COc3ccc(S(=O)(=O)N4CCCCCC4)cc32)cc1OC	112	86	103	0
COc1ccc(-c2cnn3c(N)c(-c4ccc(Cl)cc4)cnc23)cc1OC	·	·	109	-8
CCCS(=O)(=O)Nc1ccc(N2CCN(c3ccc(C(F)(F)F)cn3)CC2)nc1	102	85	101	-17
Cc1ccc(N(Cc2nc3nc(C)cc(C)n3n2)S(=O)(=O)c2ccccc2)cc1	·	·	94	-15
C/C(C=Nc1ccccc1)=C\Nc1ccccc1	89	73	·	-93
CCN(CC)C(=O)CSc1nc2cc3c(cc2c(=O)n1CCCC(=O)NCCc1ccc(OC)c(OC)c1)OCO3	98	85	107	-27
CCOc1ccc(Cn2nnc3c(=O)[nH]c(C4CCN(C(=O)c5ccccc5)CC4)nc32)cc1	-0.3*	1.7*	102	-1
Cc1ccc(-n2ncc3c(NCCCc4ccccc4)ncnc32)cc1C	107	91	106	·
COC(=O)c1c(COC(=O)/C=C/c2ccc(Br)o2)nc2ccccc2c1C	117	90	·	-15
CSc1cccc(N=C2C(=O)Nc3ccccc32)c1	77	86	102	-4
